Screening results as filed in PubChem.
Measles inh: inhibitors of measles virus growth in cells, primary screen, measles RdRp inhibitor project, cell-based, single point, HTS; infected Vero cells, GFP fluorescence, 64 h; stronger effect = lower value; z-score (concentration not given with the values); hit rate 0.1% among 33,000; AID 745, 2007;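 active = z-score under -3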;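 note: score is relative to mean and SD of the compound wells of a plate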
* hit, by the source's call.

SMILES	Measles inh
O=C1c2ccc(Br)cc2C(=O)N1c1ccc2c(c1)oc1ccccc12	-0.23
COC(=O)c1cccc(C(=O)Nc2ccc([N+](=O)[O-])cc2Br)n1	0.77
O=C(c1ccccc1)N1CCN=C1SCc1ccccc1	1.51
CCc1ccc(OCCNc2cc(N3CC(C)NC(C)C3)ccc2[N+](=O)[O-])cc1 (stereo not drawn)	-0.76
Cc1ccc(NC(=O)c2ccc(NC(=O)CCS(=O)(=O)c3cccs3)cc2)cc1Cl	-0.02
O=C1CC(c2cccc(Br)c2)c2cc3c(cc2N1)OCO3 (stereo not drawn)	-0.66
Cc1cc(C)cc(-n2cc(-c3ccc4c(c3)OCO4)[nH]c2=O)c1	0.2
C=CCC(Nc1cccc(C)c1)c1ccco1 (stereo not drawn)	-2.51
COc1ccccc1-n1c(SCC(=O)N2CCc3ccccc32)nc2c(c1=O)SCC2	0.47
Cn1c(=O)c2c(nc(N3CCOCC3)n2Cc2ccc(Cl)cc2)n(C)c1=O	1.67
Cc1nc(N2CCC(C)CC2)c2c(C)c(C(=O)Nc3ccc4c(c3)OCO4)sc2n1	-0.61
CC(=O)N1c2c(cc(Br)cc2S(=O)(=O)N2CCOCC2)CC1C (stereo not drawn)	-0.63
COc1ccc(CCNc2cc(N3CCN(S(=O)(=O)c4ccc5ccccc5c4)CC3)ccc2[N+](=O)[O-])cc1OC	-0.93
COc1ccc(-c2nc3ccccc3o2)cc1NC(=O)COc1ccc(C)cc1C	0.07
COc1cccc(Nc2c3c(nc4ccccc24)CCCC3)c1	0.17
Cc1cc2nc(SCc3ccc([N+](=O)[O-])cc3)nc(C)c2cc1C	1.63
Cc1ccc(C2=NC(C3CCCCC3)NC(c3ccccc3O)C2)cc1 (stereo not drawn)	0.63
CCOC(=O)c1c(N2C(=O)C3ON(c4ccccc4C)C(c4ccccc4)C3C2=O)sc(C)c1C (stereo not drawn)	1.04
Cc1cc(C)c2c(N)c(C(=O)Nc3ccc(Cl)cc3)sc2n1	-0.18
COc1ccc(-c2oc3ncnc(NCCCO)c3c2-c2ccc(OC)cc2)cc1	-0.34
CC1CCN(S(=O)(=O)c2ccc3c(c2)N(CC(=O)NCCN2CCCCC2C)C(=O)CS3)CC1 (stereo not drawn)	-0.86
Cc1ccc(C)c(N(C)S(=O)(=O)c2cccc3nsnc23)c1	1.84
COc1cc(C2NC(=O)NC(C)=C2C(=O)OCC(Cl)(Cl)Cl)cc(OC)c1OC (stereo not drawn)	0.24
CCCOC(=O)CCNc1n[nH]c(=O)[nH]c1=O	1.98
Cc1ccc(OCC(=O)Nc2cc(-c3nc4ncccc4o3)ccc2C)cc1	-0.37
CCN(CC)C(=O)Cn1nc(C)c2ccccc2c1=O	-0.65
O=S(=O)(Cc1ccccc1)NCC1CCCO1 (stereo not drawn)	0.54
O=C(NCCCn1ccnc1)c1cccs1	-0.54
Cc1nc(N2CCOCC2)nc(N2CCCCC2C)c1[N+](=O)[O-] (stereo not drawn)	0.36
CCOc1cccc2cc(C(=O)Nc3cccc(C(F)(F)F)c3)c(=Nc3ccc(C(=O)O)cc3)oc12	0.48
Cc1ccccc1C(=O)Nc1sc2c(c1C(=O)Nc1cccc3ccccc13)CCC2	0.47
COc1cc2c(cc1OC)C(COc1ccccc1OC)N(C(=O)c1cc3ccccc3oc1=O)CC2 (stereo not drawn)	-0.63
N#Cc1c(NC(=O)c2ccccc2Cl)sc2c1CCC2	-0.58
Cc1oc2c(C)c3oc(=O)c(C)c(C)c3cc2c1-c1ccccc1	0.75
O=C(NC1CCCCCC1)C1C2C=CC3(CN(Cc4cccnc4)C(=O)C13)O2 (stereo not drawn)	0.23
O=C(Nc1nc2ccccc2s1)c1cc(=O)c2ccccc2o1	-0.12

At a glance, some entries already given:
SMILES	Measles inh
COc1cc(C2NC(=O)NC(C)=C2C(=O)OCC(Cl)(Cl)Cl)cc(OC)c1OC (stereo not drawn)	0.24
CCCOC(=O)CCNc1n[nH]c(=O)[nH]c1=O	1.98
Cc1ccc(OCC(=O)Nc2cc(-c3nc4ncccc4o3)ccc2C)cc1	-0.37
CCN(CC)C(=O)Cn1nc(C)c2ccccc2c1=O	-0.65
O=S(=O)(Cc1ccccc1)NCC1CCCO1 (stereo not drawn)	0.54
O=C(NCCCn1ccnc1)c1cccs1	-0.54
Cc1nc(N2CCOCC2)nc(N2CCCCC2C)c1[N+](=O)[O-] (stereo not drawn)	0.36
CCOc1cccc2cc(C(=O)Nc3cccc(C(F)(F)F)c3)c(=Nc3ccc(C(=O)O)cc3)oc12	0.48
Cc1ccccc1C(=O)Nc1sc2c(c1C(=O)Nc1cccc3ccccc13)CCC2	0.47
COc1cc2c(cc1OC)C(COc1ccccc1OC)N(C(=O)c1cc3ccccc3oc1=O)CC2 (stereo not drawn)	-0.63
N#Cc1c(NC(=O)c2ccccc2Cl)sc2c1CCC2	-0.58
Cc1oc2c(C)c3oc(=O)c(C)c(C)c3cc2c1-c1ccccc1	0.75
O=C(NC1CCCCCC1)C1C2C=CC3(CN(Cc4cccnc4)C(=O)C13)O2 (stereo not drawn)	0.23
O=C(Nc1nc2ccccc2s1)c1cc(=O)c2ccccc2o1	-0.12

The list continues:
SMILES	Measles inh
CCCC1CCc2c(sc(NC(=O)C3CC=CCC3C(=O)O)c2C(N)=O)C1 (stereo not drawn)	0
Cc1ccc2ccc(C(Nc3ccccn3)c3cccnc3)c(O)c2n1 (stereo not drawn)	-1.65
O=C(CSc1nc2c(c(=O)n1-c1ccc(Cl)cc1)SCC2)N1CCCCC1	-1.22
Nc1nc2ccccc2n1CCOc1ccc2ccccc2c1	-1.2
O=C(c1cccc2ccccc12)n1nnc2ccccc21	1.12
C=C(C)c1nc2ccccc2c(=O)o1	0.05
O=C(Nc1ccccc1[N+](=O)[O-])c1cccc(S(=O)(=O)NC2CCCCC2)c1	-1.4
Cc1ccc(C)c(Cn2c(=O)n(CCC(=O)NCc3ccco3)c(=O)c3ccccc32)c1	-0.22
Cc1cc(C)nc(NS(=O)(=O)c2ccc(Nc3nc(-c4ccc(F)c(C)c4)cs3)cc2)n1	-0.58
Cc1cc(-c2cccc(Br)c2)c(C#N)c(N)n1	-0.49
CCn1c(=S)sc2c(=O)n(-c3ccccc3)c(SCC(=O)C(C)(C)C)nc21	-1.1
CC(NC(=O)c1ccc(CSCc2ccccc2F)o1)c1ccccc1 (stereo not drawn)	0.17
O=C1CN(O)C=C2N=c3ccccc3=C2N1c1ccccc1	2.07
O=C(Nc1ccc([N+](=O)[O-])cc1)c1cccc(S(=O)(=O)Nc2ccc(I)cc2)c1	-1.07
CCc1ccc(-n2c(SCc3ccccc3F)nc3[nH]ncc3c2=O)cc1	-0.52
CCOc1ccc(C2C(=O)N(C3CCCCCC3)CC(=O)N2Cc2cccs2)cc1OC (stereo not drawn)	0.7
CCCC1CCC(c2ccc(-c3noc(-c4cccnc4)n3)cc2)CC1 (stereo not drawn)	-0.44
COc1ccc(NC(C)=O)cc1NC(=O)CN1CCN(S(=O)(=O)c2ccc(F)cc2)CC1	-1.23
COc1ccc(NC(=O)c2c(NCc3cccc(F)c3)sc3c2CCC3)cc1	-1.3
CC(=O)N1c2ccc(S(=O)(=O)N3CCN(Cc4ccccc4)CC3)cc2CC1C (stereo not drawn)	-0.46
COc1ccc(NC(=O)CSc2nc3c(c(=O)n2C)SC(C)C3)c(OC)c1 (stereo not drawn)	-0.99
Cc1ccc(-n2nc(C(=O)N(C)c3cccc(C(F)(F)F)c3)c3c4ccccc4n(C)c3c2=O)cc1	0.52
O=C1c2ccccc2-c2nc3ccccc3n21	-0.82
COc1ccc(C2C(C(C)=O)=C(Nc3ccc(Br)cc3)CC(C)(O)C2C(C)=O)cc1OC (stereo not drawn)	-0.92
O=C(CSc1nc2c(sc3ccccc32)c(=O)n1Cc1ccccc1)NCc1ccco1	0.06
O=C(NCCCSC1CCCCC1)c1cccc(N2CCCC2=O)c1	-0.34
COc1cccc(C2C3=C(CCCC3=O)Nc3ncnn32)c1OC (stereo not drawn)	0.38
COc1ccc(C(=O)Oc2ccc(C=Nc3ccccc3)cc2[N+](=O)[O-])cc1	0.1
O=C(NCc1ccc2c(c1)OCO2)c1ccc(Cn2c(=O)[nH]c3ccsc3c2=O)cc1	-0.52
Oc1ccc(-c2nc3ccc4ccccc4c3c3c2CCC3)c(O)c1	-1.41
CN1C(=O)c2ccccc2Sc2ccc(C(=O)NCCN3CCOCC3)cc21	1.71
CCCCNC(=O)CSC1=Nc2ccccc2C2=NC(Cc3ccccc3)C(=O)N12 (stereo not drawn)	-0.23
COc1ccc(C2CC(C(F)(F)F)n3nc(C(=O)Nc4cccc(O)c4)cc3N2)cc1 (stereo not drawn)	-1.7
CCOC(=O)C(CC)P(=O)(c1ccccc1)c1ccccc1 (stereo not drawn)	0.87
CCN(CCCNC(=O)c1cc(-c2ccccc2)nc2ccccc12)c1cccc(C)c1	1.29
N#CC1Cn2c(nc3c(c2=O)C2(CCCC2)Cc2ccccc2-3)S1 (stereo not drawn)	0.05
Cc1onc(-c2ccccc2Cl)c1C(=O)NCCSc1c[nH]c2ccccc12	-0.5
CC(C)n1c(=S)[nH]c2c1c(=O)n(C)c(=O)n2C	0.76
CS(=O)(=O)Nc1cccc(C2=NN(S(=O)(=O)c3ccccc3)C(c3cccs3)C2)c1 (stereo not drawn)	-0.12
Cc1ccccc1CN1CCN(CC(=O)NC2CCCCCCC2)C1=O	-1.92
COc1ccc2cc3cc(C(=O)NCCCN4CCN(Cc5ccccc5)CC4)oc3nc2c1	-1.51
COc1ccc(C2SCC(=O)N2c2ccccc2)cc1 (stereo not drawn)	-0.14
O=c1c2ccccc2nc2n1CCCN2	0.45
COc1cc2c(C(=O)O)c(C)n(-c3ccccc3)c2cc1Br	0.7
O=C1c2ccc(-c3nc4ccccc4o3)cc2C(=O)N1c1cccc(-c2nc3ccccc3o2)c1	-0.33
CN1C(=O)c2ccccc2C(C(=O)NCCCN2CCC(Cc3ccccc3)CC2)C1c1c[nH]c2ccccc12 (stereo not drawn)	-0.59
Cc1ccc(S(=O)(=O)N(CC(=O)NCCc2ccccc2)c2cccc(Cl)c2)cc1	-0.11
NS(=O)(=O)c1ccc(N2C(=O)c3cc([N+](=O)[O-])cc4cc([N+](=O)[O-])cc(c34)C2=O)cc1	-0.43
CCOc1cccc(=O)c2c(C)[nH]c(C)c12	-0.16
CCCCOc1ccc(C2C(C(=O)OC)=C(C)N=C3SCCC(=O)N32)cc1OC (stereo not drawn)	0.85
Cc1cc(C)cc(NC(=O)COc2ccc(N3CC(C(N)=O)CC3=O)cc2)c1 (stereo not drawn)	-0.92
CC(=O)c1cccc(NC(=O)c2ccc(Br)c(S(=O)(=O)N3CCCCC3)c2)c1	-1.01
Cc1cccc2oc(-c3ccc(N=Cc4ccccc4[N+](=O)[O-])cc3)nc12	0.43
O=C(NCc1ccccc1)c1ccc(CSCc2ccccc2Cl)o1	-0.18
CCSCCOC(=O)C1=C(C)NC2=C(C(=O)CC(C)(C)C2)C1c1ccc(OC)cc1OC (stereo not drawn)	1.87
CCn1c2c(c3cc(OCC(C)C)ccc31)CCCC2=O	-0.24
O=C(NC1CC1)c1cc(=O)[nH]c2ccc(S(=O)(=O)N3CCCC3)cc12	-0.39
COCCCNC(=O)c1ccc2c(c1)nc(C)n2-c1cc(C)ccc1OC	-1.64
Cc1ncc([N+](=O)[O-])n1CCSc1nnc(SCc2ccccc2)s1	0.44
COC(=O)CSc1ccc(S(=O)(=O)N2CCOCC2)cc1[N+](=O)[O-]	-0.67
Going on with the list.
SMILES	Measles inh
O=[N+]([O-])c1ccc(S(=O)(=O)N2CCN(Cc3ccc4c(c3)OCO4)CC2)cc1	-0.65
CC(=O)Nc1cccc(-c2nnc(SCC(=O)O)n2C)c1	0.68
CCCNC(=O)c1c[nH]c2ccc(S(=O)(=O)N(CC)c3ccc(F)cc3)cc2c1=O	-0.07
Cc1cc(C(=O)Nc2ccc(Cl)cn2)ccc1[N+](=O)[O-]	-0.17
COc1cc(C2Nc3ccc4ncccc4c3C3=C2C(=O)CCC3)ccc1OCc1ccccc1 (stereo not drawn)	-0.78
CCOC(=O)c1c(NC(=O)c2noc3c2CCCCC3)sc2c1CCCC2	0.98
COc1cccc(CNC(=O)C2CCCN(C(=O)N(C)C)C2)c1 (stereo not drawn)	0.72
Cc1ccc(NC(=O)Cn2c3ccccc3c(=O)c3cc([N+](=O)[O-])ccc32)c(Br)c1	-0.09
Cc1ccc(S(=O)(=O)n2nc(OC(=O)c3ccc(F)cc3)cc2N)cc1	-1.65
O=C(C(Cc1ccccc1)NS(=O)(=O)c1cccs1)N1CCc2ccccc21 (stereo not drawn)	1.98
CC1CCCC(NC(=O)c2ccc(S(=O)(=O)c3ccccc3Cl)c([N+](=O)[O-])c2)C1C (stereo not drawn)	-1.24
Cc1cc(C)nc(SCC(=O)Nc2nccs2)n1	0.02

2 compounds picked at random from the list so far:
SMILES	Measles inh
Cc1cc(C(=O)Nc2ccc(Cl)cn2)ccc1[N+](=O)[O-]	-0.17
Cc1ccc(S(=O)(=O)n2nc(OC(=O)c3ccc(F)cc3)cc2N)cc1	-1.65

Continued.
SMILES	Measles inh
O=C(Nc1sc2c(c1C(=O)N1CCCCC1)CCCC2)c1ccccc1	-0.43
CCC(C)NC(=O)CCNC(=O)Cn1ccc2ccccc2c1=O (stereo not drawn)	1.88
CCN(CC)CCCNC(=O)Cn1nc([N+](=O)[O-])c(Br)c1C	0.99
Cc1ccc2nc(SCC(=O)c3ccc(Cl)cc3)[nH]c2c1	0.24
Cc1ccc(N2C(=O)CSC2c2cccs2)cc1 (stereo not drawn)	1.85
Cc1ccccc1Cn1cc(SCC(=O)Nc2ccc(Br)cc2)c2ccccc21	1.24
O=C(NCC1CCCO1)c1ccc2c(c1)N(Cc1ccccc1)C(=O)c1ccccc1S2 (stereo not drawn)	-0.31
COc1ccc(-n2nc3c(c2NC(=O)c2ccccc2C(F)(F)F)CS(=O)(=O)C3)cc1	0.45
O=C1c2cccc3cccc(c23)C(=O)N1c1ccccc1	-1.18
CC1CCCN(CCCNS(=O)(=O)c2ccc3c(c2)oc(=O)n3C)C1 (stereo not drawn)	-0.34
COc1ccc(N2CCN(C(=O)CCCCCn3c(=O)[nH]c4ccsc4c3=O)CC2)cc1	-0.91

This is a subset, so the mix of outcomes need not match the whole.
